Sa helicase inh – blocks Staphylococcus aureus DNA helicase; purified S. aureus helicase, fluorescence unwinding assay; about half of the hits fall short of the stated cut; 0.05% of 120,000 active; inhibition, %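 (tested at about 80 µM)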;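 active = both duplicates at 50% or more, or one of them with a favoured structure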;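 also: 0% = mean of negative control wells and 100% = mean of positive control wells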
MgrA-DNA mod – S. aureus MgrA-DNA binding modulation | fluorescence polarization | inhibition, %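 (about 10 µg/mL by stock and volumes)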 | 0.13% of 84,000 active | AID 602314;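 active = above 50% in either of two replicates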;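 also: 0% = protein plus DNA without compound and 100% = DNA alone without protein; higher means less MgrA bound to DNA so lower polarization; one replicate is shown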
Active calls of the source: *; / = not tested or not shown. The list is partial; count on the stated rates, not on these rows.

> CCOC(=O)c1c(C)n(C(C)C)c2ccc(OC(=O)c3ccccc3)cc12
- Sa helicase inh: 13
- MgrA-DNA mod: 1.9
> O=C1NC(=O)C(=Cc2ccc(O)c(O)c2)C(=O)N1
- Sa helicase inh: /
- MgrA-DNA mod: 15
> CN1CCN(C(=O)COc2cc(=O)n(C)c3ccccc23)CC1
- Sa helicase inh: 4
- MgrA-DNA mod: 2.6
> OCCN=Cc1c[nH]c2ccccc12
- Sa helicase inh: /
- MgrA-DNA mod: -6.4
> O=C1CCCN1CC#CCN1CCCC1
- Sa helicase inh: /
- MgrA-DNA mod: -4.2
> CN1CCN(c2c(N)cccc2Cl)CC1
- Sa helicase inh: 2
- MgrA-DNA mod: 2.0
> NC(N)=NOCC[C@H](N)C(=O)O
- Sa helicase inh: /
- MgrA-DNA mod: -9.8
> Cc1ccc(N=P(N(C)C)(N(C)C)C(C)(C)C)c(C)c1
- Sa helicase inh: -11
- MgrA-DNA mod: /
> CCC(=O)c1cn(Cc2ccccc2C#N)c2ccccc12
- Sa helicase inh: 12
- MgrA-DNA mod: 0.5
> Cc1ccc2c(c1)N(CCC(=O)N1CCC3(CC1)OCCO3)C(=O)CO2
- Sa helicase inh: 25
- MgrA-DNA mod: /
> CCN(CC)P1(=S)OC(c2ccc(I)cc2)=Nc2c1c(C)nn2CCC#N (stereo not given)
- Sa helicase inh: 8
- MgrA-DNA mod: /
> O=C(N1CCc2ccccc2C1)C(Cl)(Cl)Cl
- Sa helicase inh: /
- MgrA-DNA mod: 0.4
> Cc1ccccc1S(=O)(=O)Cc1ccc(C(=O)N2CCC3(CC2)OCCO3)o1
- Sa helicase inh: 4
- MgrA-DNA mod: /
> CCCCC/C=C\C/C=C\C/C=C\C=C\[C@H](CCCC(=O)O)OO
- Sa helicase inh: /
- MgrA-DNA mod: -0.1
> CC12CC[C@H]3[C@@H](CCC4(O)C[C@H](O)CCC34/C=N/NC(=O)c3ccccc3O)C1(O)CCC2C1=CC(=O)OC1 (stereo not given in full)
- Sa helicase inh: -1
- MgrA-DNA mod: /
> CC1=C(C(=O)OC(C)(C)C)C2(C(=O)Nc3ccccc32)C(C(=O)OC(C)C)=C(N)O1 (stereo not given)
- Sa helicase inh: /
- MgrA-DNA mod: 4.2
> OC(CN(Cc1ccccc1)Cc1ccccc1)Cn1c2ccccc2c2ccccc21 (stereo not given)
- Sa helicase inh: 8
- MgrA-DNA mod: 11
> CN1C(=O)C(=Cc2cccc(OCCOc3ccc([N+](=O)[O-])cc3)c2)C(=O)N(C)C1=O
- Sa helicase inh: /
- MgrA-DNA mod: 2.5
> Oc1ccc(Br)cc1CN1CCN(Cc2ccccc2F)CC1
- Sa helicase inh: 3
- MgrA-DNA mod: /
> CNC(=O)O/N=C/c1ccc(F)c(Cl)c1
- Sa helicase inh: 5
- MgrA-DNA mod: /
> CC1=NN(c2ccccc2)C(=O)/C1=C\c1c(O)[nH]c(=O)[nH]c1=O
- Sa helicase inh: 0
- MgrA-DNA mod: -1.3
> CN1CCN(c2c(N)c(=O)oc3ccccc23)CC1
- Sa helicase inh: -3
- MgrA-DNA mod: 0.1
> CN(C)C1=Nc2ccccc2P1(O)=S (stereo not given)
- Sa helicase inh: -8
- MgrA-DNA mod: /
> Brc1ccc2[nH]cc(/C=N/N3CCCCC3)c2c1
- Sa helicase inh: -8
- MgrA-DNA mod: /
> N#CC1=C(N)Oc2c(c(=O)oc3ccccc23)C1CCc1ccccc1 (stereo not given)
- Sa helicase inh: 12
- MgrA-DNA mod: /

Pulled by structure from above (four):
> OCCN=Cc1c[nH]c2ccccc12
- Sa helicase inh: /
- MgrA-DNA mod: -6.4
> CC1=NN(c2ccccc2)C(=O)/C1=C\c1c(O)[nH]c(=O)[nH]c1=O
- Sa helicase inh: 0
- MgrA-DNA mod: -1.3
> CCOC(=O)c1c(C)n(C(C)C)c2ccc(OC(=O)c3ccccc3)cc12
- Sa helicase inh: 13
- MgrA-DNA mod: 1.9
> CC1=C(C(=O)OC(C)(C)C)C2(C(=O)Nc3ccccc32)C(C(=O)OC(C)C)=C(N)O1 (stereo not given)
- Sa helicase inh: /
- MgrA-DNA mod: 4.2

One compound at a time, from the list above:
Listed for `CC12CC[C@H]3[C@@H](CCC4(O)C[C@H](O)CCC34/C=N/NC(=O)c3ccccc3O)C1(O)CCC2C1=CC(=O)OC1` (stereo not given in full) : Sa helicase inh: -1; MgrA-DNA mod: /
Listed for `CN1CCN(c2c(N)c(=O)oc3ccccc23)CC1` : Sa helicase inh: -3; MgrA-DNA mod: 0.1

The results go on:
> COCCN1C(=O)C(C(=O)O)C2CC1(C)Oc1ccccc12 (stereo not given)
- Sa helicase inh: 6
- MgrA-DNA mod: -2.5
> c1ccc(CN2CCNCC2)nc1
- Sa helicase inh: 9
- MgrA-DNA mod: -1.2
> c1coc(CN2CCNCC2)c1
- Sa helicase inh: 15
- MgrA-DNA mod: -3.0
> CCn1c(C)cc2c(c1=O)C1(C(=O)Nc3ccccc31)C(C(=O)OC)=C(N)O2 (stereo not given)
- Sa helicase inh: 3
- MgrA-DNA mod: /
> O=C1NC(=O)C(=CN2CCc3ccccc32)C(=O)N1
- Sa helicase inh: -3
- MgrA-DNA mod: /
> Cc1ccc(NS(=O)(=O)c2ccc(OCC(=O)N3CCN(C)CC3)cc2)cc1
- Sa helicase inh: 3
- MgrA-DNA mod: 1.9
> CC(OC(=O)c1cn(C)c2ccccc12)C(=O)N(C)c1ccccc1 (stereo not given)
- Sa helicase inh: 0
- MgrA-DNA mod: /
> O=C(O)CCCN1CC=C(c2ccccc2)CC1
- Sa helicase inh: /
- MgrA-DNA mod: -2.6
> S=C(c1ccc(Cl)cc1)N1CCOCC1
- Sa helicase inh: /
- MgrA-DNA mod: 1.3
> CCOP(C)(=O)CN1CCOCC1 (stereo not given)
- Sa helicase inh: 4
- MgrA-DNA mod: -2.0
> S=C=NCCc1ccccc1
- Sa helicase inh: -3
- MgrA-DNA mod: /
> Cc1nn(Cc2ccccc2)c(C)c1C(=O)OCC(=O)N1CCCCC1C (stereo not given)
- Sa helicase inh: 8
- MgrA-DNA mod: /
> CC(=O)NCC1CCCN2CCCCC12 (stereo not given)
- Sa helicase inh: 4
- MgrA-DNA mod: -0.1
> CC12CCC(O)CC1=CCC1C2CCC2(C)C(O)/C(=C/c3ccc(F)cc3)CC12 (stereo not given)
- Sa helicase inh: 11
- MgrA-DNA mod: 0.7
> N#CCc1ccc(N)cc1
- Sa helicase inh: 15
- MgrA-DNA mod: /
> c1cncc(CNC2CCCCC2)c1
- Sa helicase inh: 5
- MgrA-DNA mod: /
> COC(=O)C(O)(c1ccc(C)o1)C(F)(F)F (stereo not given)
- Sa helicase inh: -18
- MgrA-DNA mod: /
> Cc1ccc(Cn2cccc(C(=O)Nc3ccon3)c2=O)cc1
- Sa helicase inh: 14
- MgrA-DNA mod: /

Given with tabs: 4 of the compounds above
smiles	Sa helicase inh	MgrA-DNA mod
c1coc(CN2CCNCC2)c1	15	-3.0
CCn1c(C)cc2c(c1=O)C1(C(=O)Nc3ccccc31)C(C(=O)OC)=C(N)O2 (stereo not given)	3	/
O=C1NC(=O)C(=CN2CCc3ccccc32)C(=O)N1	-3	/
Cc1ccc(NS(=O)(=O)c2ccc(OCC(=O)N3CCN(C)CC3)cc2)cc1	3	1.9
